# Lassa entry inh – Lassa virus entry inhibition. Lassa virus pseudotype entry inhibition, cell reporter; control for the full effect not named in the record. Potency, µM (doses to about 37.9 µM), without a hit: top-dose activity change, negative = inhibition, most hits filed as inhibitors. 1.2% of 300,000 active; active means well fitted inhibition curve with a large enough effect; inconclusive means small, poorly fitted or top-dose-only effect, or effect the other way; inactive means flat fitted curve, though single readings scatter; tested in HEK293 cells; also: % is scaled to controls: 0 for no effect and ±100 for the full control effect; nearly all actives have a fitted effect of over 50% in size; luciferase read-out
# MARV entry inh – Marburg virus entry inhibition. Marburg virus pseudotyped entry inhibition, cell reporter; control for the full effect not named in the record; about a third of the inactives were read at about 46 µM. Potency, µM (series often up to 37.8 µM), for inactives: top-dose activity change, negative = inhibition, most hits filed as inhibitors. 1.8% of 300,000 active. AID 540276; active = well fitted inhibition curve with a large enough effect; inconclusive = small, poorly fitted or top-dose-only effect, or effect the other way; inactive = flat fitted curve, though single readings scatter; tested in HEK293 cells; about a fifth of its hits are not listed in these tables; also: % is scaled to controls: 0 for no effect and ±100 for the full control effect; luciferase read-out
# NS1 function inh – influenza NS1 inhibition; S. cerevisiae slowed by influenza A NS1, growth recovery by OD600; Potency, µM (doses to about 46.1 µM), without a hit: top-dose activity, positive = more growth; 0.4% of 270,000 active; AID 2326; also: actives are rising curves; nearly all actives have a fitted effect of over 50% in size
#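 Read-out: OD600 growth recovery of NS1-expressing budding yeast. Cells grown overnight at 30C in -URA glucose medium, washed, resuspended and diluted 1:100 in 2% galactose assay medium, pH 6.0. Same strain lacking NS1 served as positive control.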
# Cruzain inh noDet – cruzain (T. cruzi) inhibition without detergent | 2.3% of 200,000 active | purified cruzain, Z-FR-AMC fluorescence, no detergent | Potency, µM, without a hit: max response, negative = inhibition, most hits filed as inhibitors | P25779; active = well fitted curve in the direction sought with a large enough effect; inconclusive = small, poorly fitted or top-dose-only effect, or another doubt; inactive = no such curve, though single readings can be large; an effect the other way counts as inactive or inconclusive;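 also: plate controls were enzyme without inhibitor for no effect and buffer without enzyme for full effect; nearly all actives have a fitted effect of over 40% in size; top concentration of the series not given in the record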
# Target sequence (P25779 123-467 limits assumed): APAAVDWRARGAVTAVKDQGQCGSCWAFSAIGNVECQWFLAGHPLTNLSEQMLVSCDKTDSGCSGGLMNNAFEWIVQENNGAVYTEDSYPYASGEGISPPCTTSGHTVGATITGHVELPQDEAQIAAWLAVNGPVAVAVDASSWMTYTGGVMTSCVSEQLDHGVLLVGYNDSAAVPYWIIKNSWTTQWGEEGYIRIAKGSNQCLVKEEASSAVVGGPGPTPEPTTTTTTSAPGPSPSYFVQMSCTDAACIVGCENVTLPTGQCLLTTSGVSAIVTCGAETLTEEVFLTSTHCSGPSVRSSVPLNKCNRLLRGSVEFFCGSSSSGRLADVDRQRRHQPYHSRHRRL
#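 Purified cruzain at 1.5 nM, pre-incubated 15 min with compound at room temperature in 100 mM sodium acetate pH 5.5, 5 mM DTT, 0.00005% Triton X-100. Reaction started with 2 uM Z-FR-AMC; AMC fluorescence increase over 60 s gives rate.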
# RE007 growth inh – less growth of the S. pombe RE007 Vpr strain | Potency, µM (titrated, usually from 92.2 µM), for the others: at the highest dose activity change, negative = less growth | AID 651644 | S. pombe RE007 Vpr strain, BacTiter-Glo ATP luminescence, 24 h; control for the full effect not named in the record | 0.21% of 360,000 active; active = well fitted falling curve with a large enough effect; inconclusive = small, poorly fitted or top-dose-only effect; inactive = no such curve, though single readings can be large or run the other way;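 also: % is scaled to controls: 0 for no effect and ±100 for the full control effect; nearly all actives have a fitted effect of over 50% in size; the assay follows cell death caused by Vpr and the record does not say whether a fall means rescue or toxicity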
#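 Fission yeast strain RE007, carrying one chromosomally integrated HIV-1 vpr copy, was seeded at OD 0.01 in PMG+AL medium with 23 nL pinned compound. After 24 h at 30 °C and 99% humidity, viability was read by BacTiter-Glo luminescence.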
# 2A StopGo – lowers the luciferase signal of an FMDV 2A StopGo reporter; human cells with a luciferase reporter of 2A StopGo recoding; control for the full effect not named in the record; Potency, µM (highest dose often 57.9 µM), for the others: at the highest dose signal change, negative = less light; 1.2% of 410,000 active; AID 1159524; active = well fitted falling curve with a large enough effect; inconclusive = small, poorly fitted or top-dose-only effect; inactive = no such curve, though single readings can be large or run the other way; tested in HEK293T cells; also: % is scaled to controls: 0 for no effect and ±100 for the full control effect; nearly all actives have a fitted effect of over 45% in size; luciferase light after 4 h
# SARS PLP yeast – inhibitors of SARS-CoV papain-like protease in yeast. 0.19% of 330,000 active. Potency, µM (titrated, usually from 32.9 µM), for inactives: top-dose activity, positive = growth rescue. S. cerevisiae expressing SARS-CoV PLpro, growth rescue; control for the full effect not named in the record; also: 0% is about no effect; nearly all actives have a fitted effect of over 55% in size; growth read by luminescence after 48 h
# Cruzain Triton – inhibitors of Trypanosoma cruzi cruzain with detergent; P25779; purified cruzain, Z-FR-AMC fluorescence, 0.01% Triton; Potency, µM, without a hit: max response, negative = inhibition, most hits filed as inhibitors; 0.43% of 200,000 active; active = well fitted curve in the direction sought with a large enough effect; inconclusive = small, poorly fitted or top-dose-only effect, or another doubt; inactive = no such curve, though single readings can be large; an effect the other way counts as inactive or inconclusive;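 also: plate controls were neutral wells for no effect and buffer without enzyme for full effect; nearly all actives have a fitted effect of over 40% in size; top concentration of the series not given in the record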
#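 Enzyme 1.5 nM, Z-FR-AMC 2 uM, NaOAc 100 mM pH 5.5, DTT 5 mM, Triton X-100 0.01%; 15 min RT compound preincubation; kinetic ex360/em450, 60 s delta.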
# * hit, by the source's call; ? = inconclusive; . = no result given; [ ] = remark or other dose. Unless noted, calls follow the shape of the dose curve; as a rule, active means well fitted rising curve with a large enough effect; inconclusive means small, poorly fitted or top-dose-only effect; inactive means no such curve, though single readings can be large or run the other way. Potency is read from the fitted curve at half-maximal effect.
No.	molecule	Lassa entry inh	MARV entry inh	NS1 function inh	Cruzain inh noDet
1	O=C(NC1CCCC1)C(c1ccccn1)N(Cc1ccccc1F)C(=O)c1csnn1 (stereo unspecified)	-3%	-3%[46.1 µM]	2%	.
2	O=C(NCc1ccco1)C1CCN(C(=O)N2CCOc3ccccc32)CC1	21%[46.1 µM]	.	.	-2%
3	COc1ccc(N2CCN(C(=O)C(Cc3ccccc3)NC(=O)c3ccccc3)CC2)cc1 (stereo unspecified)	?	?	.	.
4	O=C(COc1ccccc1/C=C\c1nc(O)c([N+](=O)[O-])c(=O)[nH]1)Nc1ccccc1	4%	?	.	.
5	CCCc1nc2oc3c(NCCN(C)C)ncnc3c2c2c1CCCC2	16µM*	?	-2%	-6%
6	Cn1c(COc2ccccc2)nnc1SCC(=O)NCc1ccccc1	21%	7%	-7%	-2%
7	Cc1ccccc1CN(c1ccc(C(=O)N2CCN(C)CC2)cc1)S(C)(=O)=O	-11%	-3%[46.1 µM]	.	.
8	Cc1nc2ccccc2c(=O)n1/N=C/c1c(O)ccc2ccccc12	0%[46.1 µM]	-16%[46.1 µM]	-7%	.
9	Nc1cccc(-n2nnnc2CN2CCOCC2)c1	3%	3%	7%	18%
10	NC(=O)C1CCN(c2ncnc3c(-c4ccccc4)nsc23)CC1	-2%	-3%	-14%	-1%
11	NNC(=O)COc1ccc(-c2n[nH]c(C(F)(F)F)c2-c2ccc(Br)cc2)c(O)c1	20%	-33%	11µM*	?
12	Cc1nccn1CC(O)Cn1c2ccccc2c2ccccc21 (stereo unspecified)	-6%	?	5%	25%
13	Cc1nc2nc(SCC(=O)N(Cc3ccccc3)C(C)C)nn2c(C)c1Cc1ccccc1Cl	-2%[46.1 µM]	-3%[46.1 µM]	.	5%
14	COc1ccc(S(=O)(=O)N2CCCCC2)cc1NC(=O)COc1ccccc1	-22%	?	.	.
15	Cc1cc(C)nc(NC(=O)c2cccc(Cl)c2)n1	27%	13%	1%	0%

No.	RE007 growth inh	2A StopGo	SARS PLP yeast	Cruzain Triton
1	5%	0%	-6%	.
2	.	-12%	.	-0.8%
3	19%	-1%	.	.
4	15%	46%[activator]	0%	.
5	9%	-13%	-3%	-4.0%
6	5%	.	0%	4.6%
7	-5%	-4%	.	.
8	-1%	-27%	2%	.
9	-18%	-8%	13%	-0.9%
10	-1%	25%	-2%	-20%
11	.	-19%	-1%	-8.4%
12	4%	?	-27%	0.8%
13	.	0%	.	-8.7%
14	7%	-29%	11%	.
15	-1%	16%	0%	2.8%

# (listing goes on)
No.	molecule	Lassa entry inh	MARV entry inh	NS1 function inh	Cruzain inh noDet
16	O=C1OCC(c2ccccc2)=C1c1ccccc1[N+](=O)[O-]	8%[46.1 µM]	-7%[46.1 µM]	-4%	.
17	COc1ccc(-c2nc(CNS(=O)(=O)c3ccccc3)cs2)cc1	?	?	.	10%
18	CCc1nnc(SC(CC)C(=O)NCCOC)c2cc3occc3n12 (stereo unspecified)	4%[46.1 µM]	.	.	?
19	O=c1[nH]c2ccccc2c(=O)n1Cc1ccccc1	3%	?	2%	-6%
20	CCOc1ccc(N=Nc2c(C)[nH]n(-c3ccccc3)c2=O)cc1	22%[46.1 µM]	22%[46.1 µM]	6%	.
21	Cc1cccc(-c2nn3c(=O)cc(CN4CCN(C(=O)COc5ccc(Cl)cc5)CC4)nc3s2)c1	-3%[46.1 µM]	.	.	10%
22	CC(C)(C)C1CCc2c(sc(NC(=O)Cn3nnc(-c4ccccc4Cl)n3)c2C#N)C1 (stereo unspecified)	6%[46.1 µM]	7%[46.1 µM]	.	-2%
23	O=C(NCCc1ccccc1)c1noc2c1CCCCC2	?	?	-14%	3%
24	COc1ccc(Nc2ncnc3ccccc23)c(OC)c1	11%	23%[46.1 µM]	-4%	-3%
25	O=C(Cc1ccccc1)NCC(=O)OCc1ccccc1F	1%[46.1 µM]	0%[46.1 µM]	2%	.
26	Cc1ccc(SCCC(=O)N/N=C/c2ccncc2)cc1	?	-15%[46.1 µM]	.	.
27	Cc1ccc2nc(NCCNC(=O)c3ccccc3)c(C#N)cc2c1	.	.	-8%	.
28	COc1ccc2oc(-c3ccc(C)c(NC(=O)c4ccc5c(c4)OCCO5)c3)nc2c1	12%[46.1 µM]	23%[46.1 µM]	.	3%
29	COc1cccc(C(=O)O/N=C/c2ccc(Sc3ccc(C)cc3)nc2)c1	?	?	-3%	?
30	O=C(O)c1sccc1S(=O)(=O)c1ccccc1	6%	14%[46.1 µM]	1%	-3%

No.	RE007 growth inh	2A StopGo	SARS PLP yeast	Cruzain Triton
16	3%	-3%	-7%	.
17	.	-16%	.	-11%
18	.	-19%	.	-23%
19	29%	8%	8%	4.4%
20	14%	13%	4%	.
21	.	?	.	1.7%
22	.	0%	.	-1.1%
23	?	32%[activator]	-3%	-2.6%
24	-2%	4%	2%	-6.5%
25	2%	?	-6%	.
26	6%	-20%	-12%	.
27	11%	-10%	15%	.
28	.	37%[activator]	.	0.7%
29	0%	14%	17%	-8.2%
30	0%	3%	1%	0.6%

# More structures follow.
No.	molecule	Lassa entry inh	MARV entry inh	NS1 function inh	Cruzain inh noDet
31	Cc1ccc(OCC(=O)OC(C)CN(C)Cc2ccccc2)cc1 (stereo unspecified)	?	32%	?	2%
32	COc1ccc(OC)c(S(=O)(=O)Nc2ccc(CC(=O)O)cc2)c1	26%	-17%	3%	-11%
33	CCOC(=O)c1cccc(NC(=O)Nc2ccc3c(c2)C(=O)OC3)c1	?	-1%[46.1 µM]	2%	.
34	C=CCN(C(=O)Nc1ccc2c(c1)nc(C)n2C)c1ccccc1	.	.	2%	.
35	COc1cccc(C(=O)Nc2nnc(-c3ccc(OC)cc3OC)s2)c1	.	0%[46.1 µM]	5%	.
36	CN1CCN(c2ccccc2NC(=O)Cc2ccc(Cl)cc2)CC1	18%	-7%	1%	-5%
37	COc1ccc(C2c3ccc(O)cc3Oc3ncn(Cc4ccco4)c(=N)c32)cc1OC (stereo unspecified)	.	.	8%	.
38	COc1ccccc1C(C)NCC(=O)NCC(=O)Nc1ccc(F)c(F)c1F (stereo unspecified)	16%[46.1 µM]	-13%[46.1 µM]	.	.
39	CCOc1ccc(CNC(=O)CN2C(=O)CSc3c2c(C)nn3-c2ccccc2)cc1	-16%[46.1 µM]	.	.	11%
40	CN(C)S(=O)(=O)c1ccc(N2CCCC2)c(C(=O)Nc2ccc(C(N)=O)cc2)c1	-2%[46.1 µM]	24%	.	.
41	CCCn1c(C)cc(/C=C(\C#N)C(=O)OCC(=O)N(CC)c2c(N)n(Cc3ccccc3)c(=O)[nH]c2=O)c1C	-9%	?	.	.
42	Cc1ccc(CNC(=O)c2ccccc2N(C)S(C)(=O)=O)cc1	-1%[46.1 µM]	19%[46.1 µM]	-1%	.
43	COc1ccc(N(Cc2cc3cc(OC)ccc3[nH]c2=O)S(=O)(=O)c2ccc(NC(C)=O)cc2)cc1	.	.	-1%	.
44	CCOC(=O)N/N=C/c1cn(CCCOc2ccccc2)c2ccccc12	?	?	14%	-6%
45	Cc1ccccc1N1CCN(C2CCCN(C(=O)CN3CCCC3=O)C2)CC1 (stereo unspecified)	2%	16%	8%	.

No.	RE007 growth inh	2A StopGo	SARS PLP yeast	Cruzain Triton
31	-3%	-3%	2%	1.7%
32	3%	23%	-5%	5.4%
33	-2%	7%	-5%	.
34	-1%	38%[activator]	7%	.
35	7%	11%	-2%	.
36	10%	-7%	1%	3.1%
37	6%	-17%	0%	.
38	-3%	-4%	1%	.
39	.	-19%	.	-0.5%
40	-14%	0%	3%	.
41	-15%	43%[activator]	.	.
42	3%	13%	1%	.
43	11%	?	-10%	.
44	-4%	-23%	23%	-5.4%
45	-6%	-2%	0%	.

# A draw from above in order of count of non-hydrogen atoms, rising:
No.	molecule	Lassa entry inh	MARV entry inh	NS1 function inh	Cruzain inh noDet
29	COc1cccc(C(=O)O/N=C/c2ccc(Sc3ccc(C)cc3)nc2)c1	?	?	-3%	?
7	Cc1ccccc1CN(c1ccc(C(=O)N2CCN(C)CC2)cc1)S(C)(=O)=O	-11%	-3%[46.1 µM]	.	.
3	COc1ccc(N2CCN(C(=O)C(Cc3ccccc3)NC(=O)c3ccccc3)CC2)cc1 (stereo unspecified)	?	?	.	.

No.	RE007 growth inh	2A StopGo	SARS PLP yeast	Cruzain Triton
29	0%	14%	17%	-8.2%
7	-5%	-4%	.	.
3	19%	-1%	.	.

# 2 entries picked at random from those above:
No.	molecule	Lassa entry inh	MARV entry inh	NS1 function inh	Cruzain inh noDet
35	COc1cccc(C(=O)Nc2nnc(-c3ccc(OC)cc3OC)s2)c1	.	0%[46.1 µM]	5%	.
34	C=CCN(C(=O)Nc1ccc2c(c1)nc(C)n2C)c1ccccc1	.	.	2%	.

No.	RE007 growth inh	2A StopGo	SARS PLP yeast	Cruzain Triton
35	7%	11%	-2%	.
34	-1%	38%[activator]	7%	.

# Continued.
No.	molecule	Lassa entry inh	MARV entry inh	NS1 function inh	Cruzain inh noDet
46	Cc1cccc(-n2c(SCC(=O)N3CC(=O)Nc4ccccc43)nc3ccccc3c2=O)c1C	.	-1%	?	-2%
47	Cc1ccc(C(=O)Nc2nnc(S(=O)(=O)N3CCCc4ccccc43)s2)cc1	4%[46.1 µM]	.	.	1%
48	CCC(C)c1ccc(NC(=S)Nc2ccc(OC)c(OC)c2)cc1 (stereo unspecified)	-20%	0%	18%	12%
49	O=C(CSCc1c(F)cccc1Cl)NCc1ccncc1	6%[46.1 µM]	-7%[46.1 µM]	5%	.
50	CCN(CC)CCCNC(=O)c1cc2c(=O)[nH]c3ccc(C)cc3c2s1	.	.	3%	.
51	Cc1ccc(C(=O)Nc2ccc(-c3cn4cccnc4n3)cc2)cc1C	?	?	.	-9%

No.	RE007 growth inh	2A StopGo	SARS PLP yeast	Cruzain Triton
46	-6%	?	11%	-4.7%
47	.	31%[activator]	.	-1.0%
48	13%	-19%	-18%	-5.9%
49	-17%	-5%	1%	.
50	-12%	-15%	-1%	.
51	.	-20%	.	-3.6%

# Source: PubChem BioAssay (National Center for Advancing Translational Sciences (NCATS))
